Screening results (PubChem BioAssay)
RGS16-Gao HTS: modulates binding between human RGS16 and Galphao | binding response (% of control), % at 10 µM | O15492+P09471 | actives 0.38% (n = 220,000) | bead-based flow cytometry RGS16-Galphao binding, fluorescence; actives lie on both sides;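 active = below 25% or above 175%, edge rows of some plates excepted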;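 note: Galphao activated by GDP with aluminum fluoride before binding; 100% = wells without compound and 0% = beads without RGS; some results beyond the cut were filed as inactive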
INS promoter inh: TRM-6 insulin promoter activity inhibition. TRM-6 cells (human fetal islet line), insulin promoter-eGFP reporter, imaging; reporter expression induced with tamoxifen. inhibition, % at 2 µM. actives 0.9% (n = 130,000). AID 1273;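 active = inhibition above the mean plus 3 SD, with well images judged a real hit on visual review, cut at about 60% in these data, passing the limit was not always enough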
GALR2 agonist: activates the human galanin receptor 2 | O43603 | GALR2-expressing cells, agonist activation read-out | activation, %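 (tested at 5 µM)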 | actives 0.48% (n = 140,000) | AID 803;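 active = above mean plus 3 SD of all compounds, about 5% in these data, not always enough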;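 note: 0% = vehicle buffer wells and 100% = reference agonist at full effect; tested in CHO reporter cells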
PKD1 kinase inh: inhibitors of human PKD1 kinase. Q15139. PKD1 kinase fluorescence polarization assay. inhibition, %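 (about 10 µM by stock and volumes)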. actives 0.056% (n = 200,000). AID 797;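 active = inhibition of 50% or more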;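 note: controls were vehicle for no effect and a reference inhibitor for full effect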
Target sequence (Q15139 whole entry, looked up): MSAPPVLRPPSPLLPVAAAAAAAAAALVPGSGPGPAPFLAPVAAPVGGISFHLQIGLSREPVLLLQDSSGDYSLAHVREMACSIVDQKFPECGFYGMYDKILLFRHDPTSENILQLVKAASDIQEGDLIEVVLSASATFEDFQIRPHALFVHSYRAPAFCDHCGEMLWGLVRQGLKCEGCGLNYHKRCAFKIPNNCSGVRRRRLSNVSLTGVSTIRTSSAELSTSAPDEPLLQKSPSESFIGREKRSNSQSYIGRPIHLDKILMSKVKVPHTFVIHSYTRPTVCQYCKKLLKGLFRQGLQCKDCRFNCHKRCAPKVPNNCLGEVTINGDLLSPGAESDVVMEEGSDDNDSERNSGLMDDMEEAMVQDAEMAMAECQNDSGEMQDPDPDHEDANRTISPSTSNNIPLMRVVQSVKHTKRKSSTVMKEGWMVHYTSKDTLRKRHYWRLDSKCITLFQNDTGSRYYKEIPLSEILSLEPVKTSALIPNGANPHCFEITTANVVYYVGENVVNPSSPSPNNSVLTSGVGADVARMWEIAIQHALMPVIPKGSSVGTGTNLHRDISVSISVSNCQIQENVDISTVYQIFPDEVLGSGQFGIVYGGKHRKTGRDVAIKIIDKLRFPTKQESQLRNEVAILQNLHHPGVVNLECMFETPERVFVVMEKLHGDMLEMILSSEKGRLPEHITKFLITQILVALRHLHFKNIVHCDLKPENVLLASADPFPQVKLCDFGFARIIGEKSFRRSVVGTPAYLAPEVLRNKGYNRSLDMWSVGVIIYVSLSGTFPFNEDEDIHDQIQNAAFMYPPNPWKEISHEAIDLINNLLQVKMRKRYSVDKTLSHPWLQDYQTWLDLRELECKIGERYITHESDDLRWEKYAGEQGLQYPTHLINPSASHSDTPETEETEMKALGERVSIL
HSV replic up: increases HSV replication in cells; actives 0.005% (n = 220,000); HSV replication augmentation in cells, fold increase; maximum fold increase;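 active = peak rise of 1.5-fold or more in the series; tested in PC3 cells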;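 note: first round at 10 µM; read as green reporter fluorescence; hits show the peak of a series up to 25 µM; 1 = signal of infected wells without compound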
INS promoter inh cell count: also measured in INS promoter inh; calls as there; normalized cell count, %; measured here: cell count, toxicity; reference of the scale not given here;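 cells exposed to compound for 48 h; stained nuclei by imaging scaled within each plate; lower means fewer cells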
HSV replic up primary fold: recorded beside HSV replic up, whose call it bears; fold increase; compound at 10 µM; measured here: primary screen fold increase 10 uM; tested in PC3 cells;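 GFP signal in the first replicate; 1 = infected wells without compound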
* = called active by the depositor; i = inactive; . = no result given.

no. | SMILES | RGS16-Gao HTS | INS promoter inh | INS promoter inh cell count | GALR2 agonist
1 | CC(C)C(OC(=O)CCC(=O)Nc1nccs1)C(=O)NC1CCCCC1 (stereo not drawn) | 103 | 0 | 68 | .
2 | COc1ccc(C(=O)NC(=S)Nc2ccccc2N2CCN(S(C)(=O)=O)CC2)cc1OC | 102 | . | . | -0.3
3 | CC(=O)c1ccc(N(C(=O)CNC(=O)c2ccco2)C(C(=O)NCC2CCCO2)c2ccccc2)cc1 (stereo not drawn) | 103 | 7 | 84 | .
4 | Cc1cc(NC(=O)COC(=O)c2cccc(S(=O)(=O)N(C)C3CCCCC3)c2)no1 | 89 | . | . | .
5 | O=C1CN(C(=O)CSc2nnc(-c3ccccc3)n2Cc2ccc3c(c2)OCO3)c2ccccc2N1 | 95 | . | . | 0.8
6 | O=C(NC1CCSC1=O)c1ccccc1 (stereo not drawn) | 103 | 9 | 193 | -0.4
7 | CCC(=O)n1nc(-c2ccccc2)nc1SCC(=O)Nc1ccc(C)cc1 | 128 | 13 | 105 | -1.3
8 | COc1ccc2c(C)cc(N3CCCCCC3)nc2c1 | 101 | 50 | 131 | .
9 | Cc1cc(C)n(C(=O)c2ccc(NC(=O)C3CC3)cc2)n1 | 100 | . | . | -3.3
10 | O=C(CN1CCOc2ccccc21)NC1CCN(Cc2ccccc2)CC1 | 104 | . | . | -1.7
11 | Cc1nc2ccccc2nc(C)c1=NO | 99 | 43 | 65 | -1.0
12 | CC(N)(C(=O)O)c1cccc(OCc2cccc(Cl)c2)c1 (stereo not drawn) | 101 | . | . | .
13 | CCCS(=O)(=O)N1CCCC(C(=O)NCCN(CC)c2ccccc2)C1 (stereo not drawn) | 100 | . | . | -1.4
14 | C=CCSc1nnc(NC(=O)COc2ccccc2)s1 | 107 | . | . | .
15 | Nc1cccnc1Sc1ccc(Cl)cc1 | 96 | . | . | -2.9

no. | PKD1 kinase inh | HSV replic up | HSV replic up primary fold
1 | -6 | i | 1
2 | 9 | i | 0.85
3 | -2 | i | 0.97
4 | . | i | 1
5 | 7 | i | 1.3
6 | -10 | i | 1.1
7 | -10 | i | 1
8 | -3 | i | 0.85
9 | -5 | i | 0.94
10 | -2 | i | 0.9
11 | 2 | i | 1.1
12 | . | i | 0.89
13 | -9 | i | 1.1
14 | -5 | i | 1.1
15 | 6 | i | 0.82

Carrying on.
no. | SMILES | RGS16-Gao HTS | INS promoter inh | INS promoter inh cell count | GALR2 agonist
16 | CCc1ccc(Nc2cnn(-c3nc4ccccc4s3)c(=O)c2Cl)cc1 | 54 | 34 | 119 | -1.3
17 | CCn1nc(C)c(/C=N\NC(=O)c2ccc3c(c2)OCO3)c1C | 102 | -19 | 115 | -1.8
18 | CC(C)CC1c2[nH]c3ccccc3c2CCN1C(=O)CCC(=O)N(C)C (stereo not drawn) | 103 | . | . | .
19 | CCSC1=C(C#N)C(c2ccccc2Cl)CC(=O)N1 (stereo not drawn) | 104 | -71 | 142 | -3.3
20 | O=C(CCCN1C(=O)c2cccc3cccc(c23)C1=O)NCc1cccnc1 | 115 | -92 | 107 | .
21 | CCOC(=O)c1c(N)sc2c(NC(C)=O)cccc12 | 102 | 0 | 110 | -1.5
22 | COC(=O)[C@@H]1C[C@H]2CC[C@H](O)C[C@H]2N1Cc1ccc(C)s1 | 92 | . | . | .
23 | CN1C2CCC1/C(=C\c1ccccc1Cl)C(=O)/C2=C\c1ccccc1Cl | 104 | . | . | .
24 | Nn1cnnc1SCC(=O)Nc1ccc2c(c1)OCO2 | 100 | -9 | 68 | .
25 | CC(=O)N1CC(C)c2scc(C)[n+]2-c2ccccc21 (stereo not drawn) | 83 | -10 | 85 | -0.8
26 | Cc1cc(=O)[nH]c(N/N=C/c2ccc(OC(=O)c3cccnc3)cc2)n1 | 110 | -50 | 29 | .
27 | Cc1occc1C(=O)N1CCN(S(C)(=O)=O)CC1 | 100 | -20 | 164 | 0.4
28 | COc1ccc(-n2c(C)nc(N)c2C(=O)c2ccccc2)cc1 | 101 | . | . | .
29 | O=C(N/N=C/c1cc2cc3c(cc2nc1Cl)OCCO3)c1ccccc1O | 99 | -23 | 161 | -0.2
30 | O=C(NNC(=O)C1CCN(Cc2ccccc2)CC1)c1cccc(Cl)c1 | 99 | 3 | 148 | -1.9

no. | PKD1 kinase inh | HSV replic up | HSV replic up primary fold
16 | -8 | i | 0.9
17 | -1 | i | 1
18 | -11 | i | 1
19 | -5 | i | 1
20 | -4 | . | .
21 | -10 | i | 1
22 | . | i | 1.1
23 | . | i | 1.1
24 | -6 | i | 1.1
25 | 4 | i | 1
26 | -5 | i | 1
27 | -1 | i | 0.96
28 | . | i | 1.1
29 | 3 | i | 0.93
30 | -5 | i | 0.93

A second format for 15 compounds above.
cpd | compound | RGS16-Gao HTS | INS promoter inh | INS promoter inh cell count | GALR2 agonist | PKD1 kinase inh | HSV replic up | HSV replic up primary fold
15 | Nc1cccnc1Sc1ccc(Cl)cc1 | 96 | . | . | -2.9 | 6 | i | 0.82
16 | CCc1ccc(Nc2cnn(-c3nc4ccccc4s3)c(=O)c2Cl)cc1 | 54 | 34 | 119 | -1.3 | -8 | i | 0.9
17 | CCn1nc(C)c(/C=N\NC(=O)c2ccc3c(c2)OCO3)c1C | 102 | -19 | 115 | -1.8 | -1 | i | 1
18 | CC(C)CC1c2[nH]c3ccccc3c2CCN1C(=O)CCC(=O)N(C)C (stereo not drawn) | 103 | . | . | . | -11 | i | 1
19 | CCSC1=C(C#N)C(c2ccccc2Cl)CC(=O)N1 (stereo not drawn) | 104 | -71 | 142 | -3.3 | -5 | i | 1
20 | O=C(CCCN1C(=O)c2cccc3cccc(c23)C1=O)NCc1cccnc1 | 115 | -92 | 107 | . | -4 | . | .
21 | CCOC(=O)c1c(N)sc2c(NC(C)=O)cccc12 | 102 | 0 | 110 | -1.5 | -10 | i | 1
22 | COC(=O)[C@@H]1C[C@H]2CC[C@H](O)C[C@H]2N1Cc1ccc(C)s1 | 92 | . | . | . | . | i | 1.1
23 | CN1C2CCC1/C(=C\c1ccccc1Cl)C(=O)/C2=C\c1ccccc1Cl | 104 | . | . | . | . | i | 1.1
24 | Nn1cnnc1SCC(=O)Nc1ccc2c(c1)OCO2 | 100 | -9 | 68 | . | -6 | i | 1.1
25 | CC(=O)N1CC(C)c2scc(C)[n+]2-c2ccccc21 (stereo not drawn) | 83 | -10 | 85 | -0.8 | 4 | i | 1
26 | Cc1cc(=O)[nH]c(N/N=C/c2ccc(OC(=O)c3cccnc3)cc2)n1 | 110 | -50 | 29 | . | -5 | i | 1
27 | Cc1occc1C(=O)N1CCN(S(C)(=O)=O)CC1 | 100 | -20 | 164 | 0.4 | -1 | i | 0.96
28 | COc1ccc(-n2c(C)nc(N)c2C(=O)c2ccccc2)cc1 | 101 | . | . | . | . | i | 1.1
29 | O=C(N/N=C/c1cc2cc3c(cc2nc1Cl)OCCO3)c1ccccc1O | 99 | -23 | 161 | -0.2 | 3 | i | 0.93

Carrying on:
no. | SMILES | RGS16-Gao HTS | INS promoter inh | INS promoter inh cell count | GALR2 agonist
31 | CC(=O)Nc1cc(NC(C)=O)cc(-c2nc3ccccc3[nH]2)c1 | 98 | . | . | .
32 | CC(=O)C1=C(C)NC(SCC(=O)c2cc(Cl)ccc2Cl)=C(C#N)C1c1ccco1 (stereo not drawn) | . | . | . | 0.0
33 | CCOC(=O)CSc1ncc(OC)c(Sc2ccc(OC)cc2)n1 | 102 | . | . | -2.6
34 | Cc1c(Cl)c([N+](=O)[O-])nn1CCCC(=O)NC(C)c1ccccc1 (stereo not drawn) | 102 | 57 | 156 | -1.0
35 | COC(=O)c1ccc(NC(=S)N2CCN(Cc3cccc(C)c3)CC2)cc1 | 101 | 29 | 124 | -2.4
36 | Cc1ccc(-c2nnn(CC(=O)N(CCO)C(C(=O)NC3CCCC3)c3ccc(F)cc3)n2)o1 (stereo not drawn) | 109 | 31 | 137 | .
37 | CC(NC(=O)CSc1ncccn1)c1ccc(Cl)cc1Cl (stereo not drawn) | 104 | 14 | 107 | .
38 | O=S(=O)(Nc1nccs1)c1cc(Cl)ccc1Cl | 83 | . | . | -0.9
39 | CCOC(=O)c1c(C=O)c(C)n(Cc2ccc(C)cc2)c1C | 100 | -4 | 178 | -1.9
40 | O=S(=O)(c1ccc(S(=O)(=O)N2CCOCC2)cc1)N1CCCC1 | 194 | 53 | 81 | .
41 | CC(=O)Nc1ccc(/C=C/C(=O)c2ccccc2)cc1 | 101 | . | . | .
42 | O=S(=O)(Nc1ncccc1O)c1ccc(Cl)cc1 | 100 | 12 | 124 | -2.5
43 | COCCCNCC(O)COc1cccc2[nH]c(C)cc12 (stereo not drawn) | 98 | 22 | 109 | .
44 | Cc1cc(C(=O)COc2ccccc2C(N)=O)c(C)n1C | 101 | . | . | .
45 | CCCCS(=O)(=O)/C=C\C=C/S(=O)(=O)CCCC | 89 | . | . | -3.8

no. | PKD1 kinase inh | HSV replic up | HSV replic up primary fold
31 | 0 | i | 0.85
32 | -8 | i | 1
33 | -8 | i | 0.83
34 | -5 | i | 0.87
35 | -13 | i | 0.89
36 | 1 | i | 1.1
37 | 2 | i | 1.2
38 | 1 | i | 1.1
39 | 1 | i | 0.92
40 | -1 | i | 0.91
41 | . | i | 0.83
42 | -1 | i | 1.1
43 | 0 | i | 0.89
44 | 13 | i | 0.71
45 | -5 | . | .

Other results.
no. | SMILES | RGS16-Gao HTS | INS promoter inh | INS promoter inh cell count | GALR2 agonist
46 | CS(=O)(=O)Nc1ccccc1C(=O)NC1CC2CCC1C2 (stereo not drawn) | 100 | 27 | 98 | -1.2
47 | CSC1=NCCN1S(=O)(=O)c1ccc(Cl)cc1 | 100 | 21 | 85 | .
48 | Cc1nc(-c2ccc([N+](=O)[O-])cc2)sc1C(=O)O | 103 | . | . | .
49 | Nc1ccccc1-c1nnc(-c2ccccc2N)n1N | 99 | . | . | .
50 | Cc1ccc(S(=O)(=O)N2CCCCC2)cc1NC(=O)COC(=O)c1ccc2c(c1)OCO2 | 98 | 27 | 93 | -0.5
51 | CN(NC1CC(=O)N(c2ccccc2)C1=O)c1ccccc1 (stereo not drawn) | 97 | . | . | 0.1
52 | CCn1c(/C=C/Nc2ccccc2)[n+](CC)c2cc(Cl)c(Cl)cc21 | 104 | -20 | 65 | 0.4
53 | CN1CCN(C(=O)C2=C[C@@H](c3coc4ccccc4c3=O)C[C@@H](OCc3ccc(CO)cc3)O2)CC1 | 94 | . | . | .
54 | C/C=C/c1ccc(OCCCCOc2ccccc2C(C)=O)c(OC)c1 | 103 | 30 | 96 | -1.3
55 | Cn1ncc2c(NNC(=O)c3ccc(O)cc3)ncnc21 | 96 | . | . | .
56 | COc1cc(-c2nc(CN3CCN(c4ncccn4)CC3)c(C)o2)ccc1F | 105 | . | . | .
57 | COc1ccc(NC(=O)CSc2nnc(-c3cccnc3)n2C)cc1 | 103 | . | . | .
58 | COc1ccc(Br)c2oc(S)cc(=O)c12 | 102 | 71* | 102* | -0.7
59 | Fc1ccc(Nc2ncnc3sc4c(c23)CCC4)cc1F | 97 | . | . | 1.9
60 | O=C(NCc1ccco1)C(c1ccccc1)N(CC1CCCO1)C(=O)Cn1nnc2ccccc21 (stereo not drawn) | 100 | . | . | 1.3

no. | PKD1 kinase inh | HSV replic up | HSV replic up primary fold
46 | -6 | i | 0.91
47 | 9 | i | 0.99
48 | 3 | i | 1.1
49 | 6 | i | 0.98
50 | -8 | i | 0.96
51 | 1 | i | 1.1
52 | 0 | i | 0.95
53 | -1 | i | 0.91
54 | 3 | i | 0.86
55 | 8 | i | 0.97
56 | 0 | i | 0.74
57 | . | i | 1
58 | -11 | i | 1.1
59 | -5 | i | 0.91
60 | 3 | i | 0.92

New compounds follow:
no. | SMILES | RGS16-Gao HTS | INS promoter inh | INS promoter inh cell count | GALR2 agonist
61 | CCn1c(C)csc1=NC(=O)c1ccccc1 | 101 | . | . | -2.1
62 | COc1cccc(NS(=O)(=O)c2ccc3[nH]cc(C(=O)N(C)Cc4ccco4)c(=O)c3c2)c1 | 97 | -4 | 70 | -0.9
63 | NNC(=O)CSCc1nc(-c2ccc(Cl)cc2)cs1 | 92 | . | . | .
64 | CCOC(=O)c1ccc(NC(=O)COc2ccc(S(=O)(=O)NC(C)(C)C)cc2)cc1 | 104 | 53 | 77 | -2.8

no. | PKD1 kinase inh | HSV replic up | HSV replic up primary fold
61 | 7 | i | 1.1
62 | -3 | i | 0.9
63 | . | i | 1.1
64 | -11 | i | 0.86
